Screening data (PubChem BioAssay)
TRPML1 agonist: qHTS for Agonists of the Human Mucolipin Transient Receptor Potential 1 (TRPML1). Mucolipin-1 (Homo sapiens), Q9GZU1. TRPML1-expressing cells, Ca2+ dye fluorescence, FDSS; host cell line not named in the record; reference of the full effect not given here. activation, % (no concentration beside the values). 0.12% of 410,000 active. AID 624414, 2012; in the data active = activation above about 50%; inconclusive = about 30% to 50%; inactive = below about 30%; also: 0% is about no effect; the text of the record puts the active cut at 80%
Target sequence (Q9GZU1 whole entry, looked up): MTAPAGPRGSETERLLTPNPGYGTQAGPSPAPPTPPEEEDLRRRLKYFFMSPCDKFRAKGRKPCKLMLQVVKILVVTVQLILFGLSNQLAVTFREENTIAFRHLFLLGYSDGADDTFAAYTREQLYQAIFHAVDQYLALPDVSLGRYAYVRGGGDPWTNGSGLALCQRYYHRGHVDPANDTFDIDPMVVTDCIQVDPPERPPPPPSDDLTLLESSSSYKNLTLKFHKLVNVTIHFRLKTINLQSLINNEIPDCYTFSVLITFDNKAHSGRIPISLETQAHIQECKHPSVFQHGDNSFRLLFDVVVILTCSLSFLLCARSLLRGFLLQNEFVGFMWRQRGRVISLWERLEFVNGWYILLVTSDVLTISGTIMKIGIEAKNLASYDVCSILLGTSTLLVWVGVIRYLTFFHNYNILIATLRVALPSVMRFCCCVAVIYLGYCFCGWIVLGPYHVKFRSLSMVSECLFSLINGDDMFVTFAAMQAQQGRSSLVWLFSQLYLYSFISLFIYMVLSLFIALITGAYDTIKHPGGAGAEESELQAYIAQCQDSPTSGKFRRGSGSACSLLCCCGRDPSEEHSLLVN
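Calcium fluorescence on an FDSS kinetic reader gave the read-out. Tet-induced TRPML1-DL cells were plated overnight, dye-loaded (Ca8 with quencher, 45-90 min, room temperature, dark), then read 110 s after compound addition, and again 110 s after 4uM final 54-4 (EC80).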
TRPML1 blocker: qHTS for Inhibitors of the Human Mucolipin Transient Receptor Potential 1 (TRPML1); 0.02% of 390,000 active; activity change, negative = inhibition, % (concentration not given with the values); Mucolipin-1 (Homo sapiens), Q9GZU1; TRPML1-inducible cells, Ca2+ dye fluorescence, FDSS; stronger effect = lower value; inhibition of EC80 agonist-evoked calcium signal; in the data active means activity change below about -50%; inconclusive means about -30% to -50%; inactive means above about -30%;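 also: stimulus is agonist 54-4 at its EC80 concentration; % is scaled to controls: 0 for no effect and ±100 for the full control effect; compound concentration not given in the record; the text of the record puts the active cut at -80%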
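Calcium fluorescence in TRPML1-DL cells induced overnight with Tet: a 110 s read after compound pin addition, then a 110 s antagonist read after challenge with 54-4 at 4 uM final (EC80).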
D2 potentiator: Beta-Arrestin HTS for Positive Allosteric Modulators of the Human D2 Dopamine Receptor: Potentiators | D(2) dopamine receptor (Homo sapiens), P14416 | DiscoveRx D2 beta-arrestin cells, luminescence, 90 min; 100% = 57 uM dopamine signal | potentiation, % (no concentration beside the values) | 0.23% of 360,000 active | AID 624464, 2012; active = potentiation of 50% or more; inconclusive = 30% to 50%; inactive = 30% or less;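 also: compound concentration not given in the record; tested on top of an EC20 dose of dopamine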
Target sequence (P14416 whole entry, looked up): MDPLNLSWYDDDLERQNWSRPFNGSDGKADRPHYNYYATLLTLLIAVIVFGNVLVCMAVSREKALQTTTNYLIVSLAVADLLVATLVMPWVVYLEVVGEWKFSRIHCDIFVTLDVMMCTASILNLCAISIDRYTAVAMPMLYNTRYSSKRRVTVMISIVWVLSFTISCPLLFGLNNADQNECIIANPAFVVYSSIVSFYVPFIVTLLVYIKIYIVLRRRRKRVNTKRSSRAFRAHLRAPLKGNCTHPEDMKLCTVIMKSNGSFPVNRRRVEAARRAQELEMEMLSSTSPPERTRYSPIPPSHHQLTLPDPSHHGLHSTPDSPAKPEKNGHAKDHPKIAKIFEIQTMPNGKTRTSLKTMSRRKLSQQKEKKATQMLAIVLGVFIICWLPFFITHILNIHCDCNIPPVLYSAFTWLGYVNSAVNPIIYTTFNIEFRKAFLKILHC
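D2 cells co-treated with compound plus 50 nM dopamine (EC20) for 90 min at 37 deg C to detect potentiation. Beta-arrestin recruitment was read as enzyme-fragment luminescence after 1 h at ambient temperature. Full response was set by 57 uM dopamine.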
Six1-Eya2 blk: qHTS Assay for Inhibitors of the Six1/Eya2 Interaction. Homeobox protein SIX1 (Homo sapiens) + Protein phosphatase EYA2 (Homo sapiens), …. AlphaScreen GST-Six1/His-Eya2 binding, biochemical; stronger effect = lower value; control for the full effect not named in the record. activity change, % (concentration not given with the values). 0.56% of 360,000 active; in the data active = activity change below about -65%; inconclusive = about -30% to -65%; inactive = above about -30%; also: % is scaled to controls: 0 for no effect and ±100 for the full control effect
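AlphaScreen luminescence read after one hour at 37 °C in darkness. Pin-transferred compounds met GST-Six1 and His-Eya2 protein (5X stock 250 nM/500 nM) plus glutathione donor and Ni-chelate acceptor beads (5X, 50 ug/mL).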
PINK1 expr mod: A Quantitative High throughput Screen to Identify Chemical Modulators of PINK1 Expression. PINK1 immunofluorescence, high-content cytometry, 24 h. Potency, µM (top dose mostly 76.6 µM), for inactives: at the highest dose activation (PINK1 increase), usual class: activators. 0.2% of 410,000 active. AID 624263, 2012; active = well fitted activation curve with a large enough effect; inconclusive = small, poorly fitted or top-dose-only effect; inactive = flat fitted curve, though single readings scatter; cell line not stated here;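 also: potency is read from the fitted curve at half-maximal effect; % of control where 0% means no effect; nearly all actives have a fitted effect of over 65% in size; a mitochondrial uncoupler was the plate control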
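Cells are seeded, rested 12 hours, then given compound at five concentrations or DMSO for 24 hours. After fixation, blocking and antibody staining, PINK1 amount and mitochondrial localization are scored; CCCP serves as control.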
D2 ag: Beta-Arrestin HTS for Positive Allosteric Modulators of the Human D2 Dopamine Receptor: Agonists; D(2) dopamine receptor (Homo sapiens), P14416; DiscoveRx PathHunter D2 beta-arrestin, luminescence, 90 min; 100% = 57 uM dopamine signal; activation, % (test concentration not listed); 0.084% of 360,000 active; AID 624465, 2012; in the data active = activation above about 40%; inconclusive = about 15% to 40%; inactive = below about 15%; also: compound concentration not given in the record; the text of the record calls up to 30% inactive
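DiscoveRx PathHunter D2 beta-arrestin cells (2,100/well) attached overnight, then compound-stimulated 90 min at 37 C in HBSS/10 mM HEPES/0.1% Tween-20 buffer; beta-galactosidase complementation read by luminescence after 1 h at ambient temperature. Dopamine 57 uM final (EC100) as control.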
* hit, by the source's call; u = inconclusive; x = no result given; & = joins results of further samples; [ ] = remark or other dose.

SMILES | TRPML1 agonist | TRPML1 blocker | D2 potentiator | Six1-Eya2 blk | PINK1 expr mod | D2 ag
CCOC(=O)C1=C(C)N2C(=C(C#N)[C@@H]1c1ccc(C(=O)OC)cc1)SC[C@@]2(O)C(C)(C)C | 0.8 | 17 | -10 | 1 | 2.3% | -2.2
COc1ccccc1NC(=O)NCCCN1CCN(c2cccc(Cl)c2)CC1 | 0.3 | 12 | -15 | -2 | 0.7% | -3.8
CCc1ccc(OCCCCCn2ccnc2)cc1 | -0.4 | -11 | -4 | 0 | 0.5% | 3.2
CN1CCN(S(=O)(=O)c2ccccc2)CC1 | -0.5&-0.4 | 8 | -3 | 1 | -0.8%&1.0% | 0.9
CCOc1ccc(OCC)c(NS(=O)(=O)c2cc(-c3cc(C)no3)ccc2C)c1 | 0.5 | -6 | x | x | 3.0% | x
Cc1ccc(S(=O)(=O)NNC(=O)CCC(=O)Nc2ccccc2Cl)cc1 | -0.1 | -6 | -6 | -2 | 1.7% | -0.6
CCOc1ccc(NC(=O)NC2CCS(=O)(=O)C2)cc1 (configuration not stated) | 0.1 | 10 | 2 | 3 | 7.8% | -4.1
Cn1nc(OCc2ccccc2)ccc1=O | -0.3 | 3 | -17 | -1 | 0.7% | -2.9
CN1C(=O)c2ccccc2C(C(=O)O)C1c1cccc(F)c1 (configuration not stated) | -0.7 | 3 | -2 | 13 | -0.9% | 0.3
O=C1CCCCC/C1=N/Nc1ccc(OCc2ccccc2)cc1 | 0.4 | -21 | -5 | 1 | 1.1% | 0.6
Cc1ccc(Cl)cc1N1CCN(S(=O)(=O)c2ccc3[nH]c4c(c3c2)CCCC4)CC1 | 2.9 | -4 | x | x | 1.7% | x
CC1CCCN(CCCNC(=O)c2ccc3c(c2)N(Cc2cccc(Cl)c2)C(=O)c2ccccc2S3=O)C1 (configuration not stated) | 0.7 | -6 | -27 | 0 | -1.0% | -1.5
COCCCn1c(SCC(=O)NC2CCCCC2)nnc1-c1ccncc1 | -0.5 | -7 | u | 3 | -0.8%[38.3 µM] | -3.9
CCOC(=O)c1c(C)nc2sc3c(=O)n(-c4ccc(C(C)=O)cc4)cnc3c2c1-c1ccc(Cl)cc1 | 4.9 | 23 | -17 | -1 | -0.5% | -4.8
Cc1cccc(-c2n[nH]c(=S)n2-c2ccccc2)c1[N+](=O)[O-] | -0.2 | -12 | -8 | -1 | -0.5% | 1.3
O=C(O)c1ccccc1C(=O)NCc1c(Cl)cccc1Sc1ccc(Cl)cc1 | 1.4 | -24 | 2 | 3 | 1.1% | 1.3
Cc1ccc(NC(=O)C(=O)NCC2(c3ccccc3)CCCC2)cc1C | -0.2 | 10 | x | x | -0.9% | x
O=C(CCC1CCCN(C(=O)c2ccc(F)c(F)c2)C1)N1CCN(c2ccccn2)CC1 (configuration not stated) | 1.2 | 45 | 5 | 0 | 0.9% | -1.4
CCOc1ccccc1/C=C/c1nc2ccccc2[nH]c1=O | 2.5 | 1 | -1 | 10 | 11% | -3.8
COCCN(Cc1cc2ccc(C)cc2[nH]c1=O)S(=O)(=O)c1ccccc1 | -0.5 | 3 | 3 | 9 | 1.9% | -2.9
Cc1ccn2cc(C(=O)NCc3ccco3)nc2c1 | -0.4 | 4 | -7 | 3 | 0.7% | -1.7
O=C(Cc1ccccc1F)Nc1cc(S(=O)(=O)N2CCCC2)ccc1Cl | 0.4 | 1 | -3 | -2 | 3.7% | 1.1
CCN(CC)CCOC(=O)c1cc(Cl)c(N)cc1OC | 0.0 | 11 | -33 | 3 | 0.3% | -4.6
O=C1NC(=S)S/C1=C\c1ccc(SCc2ccco2)o1 | 1.2 | 5 | -3 | u | 4.0% | 3.1
CC(C)N1CCC1(C)C(=O)Nc1ccc2cn[nH]c2c1 (configuration not stated) | -0.2 | x | -5 | -1 | 2.9% | -4.5
CN(C)S(=O)(=O)c1cc(NC(=O)CN2CCN(c3ccccc3F)CC2)ccc1Cl | 2.2 | 21 | 5 | 3 | 1.7% | u
CCN1C(=O)N(C)C(N(O)C(=O)NC)C1(C)C (configuration not stated) | 1.2 | -6 | -28 | 5 | -2.0% | 1.8
CC(C)(C)NC(=O)Cn1nnc(-c2ccc(S(C)(=O)=O)cc2)n1 | -0.4 | 6 | -11 | 6 | -2.0% | 0.1
Cc1ccc(NC(=S)N/N=C2\CC3CC=CC23)c(C)c1 (configuration not stated) | -0.2 | -24 | -7 | -2 | 3.2% | -11
Cc1cc(C)nc(NC(=O)C2c3ccccc3Oc3ccccc32)n1 | 0.4 | -10 | -4 | -3 | 11% | -6.4
Cc1ccccc1NC(=O)NC1(C(=O)N2CCC(C(N)=O)CC2)CCCCC1 | -0.8 | 44 | -8 | 7 | 1.3% | -1.8
O=C(CSc1nncs1)Nc1ccc(S(=O)(=O)N2CCCC2)cc1 | -0.3 | 2 | 0 | -2 | 0.4% | -1.7
COc1ccc(CCNC(=O)CSc2ccccc2)cc1OC | 0.0 | 6 | 2 | 1 | 2.5% | -0.8
Cc1cccc(NC(=O)C(=O)NCCc2sc(-c3ccccc3)nc2C)c1C | 3.8 | 12 | x | x | -0.7% | x
CCCN(CCC)c1nc(-c2ccccn2)nc2ccccc12 | 2.7 | 30 | -16 | u | u | -4.7
COC(=O)Cn1c2ccccc2c(=O)n1C(C)CBr (configuration not stated) | -0.9 | x | x | 1 | 1.1% | x
CC(C)(C)OC(=O)N1CCC(C(=O)N2CCC[C@H]2C(=O)O)CC1 | -0.7 | 19 | -5 | -1 | 15%[38.3 µM] | -0.5
CCOc1ccc(CNCCNC(=O)c2nonc2N)cc1 | 0.6&2.0 | -4&-4 | -7 | -1 | -0.1%&-0.4% | -6.5
O=C(C[n+]1ccc(-c2nnc3n2CCCCC3)cc1)c1ccc(Cl)cc1 | -0.1 | -7 | -10 | 15 | -0.3% | -4.4
CC1(C)C2C/C(=N\O)C(C)(/[N+]([O-])=C/c3cccc([N+](=O)[O-])c3)CC21 (configuration not stated) | -0.1 | 29 | -1 | 4 | 1.1% | -2.5
O=C(NCCN1C(=O)S/C(=C\c2ccc(OC(F)F)cc2)C1=O)c1cnccn1 | 0.3 | -8 | -17 | 3 | 20% | 3.2
COc1cc(CNCc2ccncc2)cc(Br)c1OCc1ccccc1F | 2.8 | 15 | -9 | 23 | 0.0%[38.3 µM] | -1.3
C=CCn1c(=N)c(C(=O)NCCCOC)cc2c(=O)n3ccccc3nc21 | 0.1 | -11 | -9 | -3 | -0.9% | -1.5
Cc1ccccc1C(=O)NC1CCN(Cc2ccccc2)CC1 | -0.5 | 17 | -17 | 3 | 4.0% | -1.1
Cc1cc(NC(=O)CCN2C(=O)C3C4CCC(C4)C3C2=O)c(C)cc1Br (configuration not stated) | -0.4 | 7 | 6 | 6 | 3.1%[38.3 µM] | -2.2
Cc1ccc(C(=O)N[C@H](C(=O)NC2CCCCC2)C(C)C)cc1 | 1.7 | 21 | -2 | 1 | 5.5% | -4.2
CCOc1ccccc1NC(=O)Nc1cc(C(=O)O)ccc1C | -0.3 | -5 | 4 | 17 | 1.1% | -1.7
CC1Cc2nc(SCC(=O)NCC3CCCO3)n(-c3ccccc3)c(=O)c2S1 (configuration not stated) | -1.3 | -9 | 3 | 17 | -0.1% | -0.7
COC(=O)c1ccc(CNC(=O)COC(=O)CC23CC4CC(CC(Br)(C4)C2)C3)cc1 | 2.4 | 29 | -12 | 8 | -0.1% | 0.3
O=C(CSc1nnc(-c2ccncc2)n1-c1ccc(Cl)cc1)NCc1cccs1 | -0.9 | -12 | -16 | 2 | -4.8% | -3.2

The listing continues:
SMILES | TRPML1 agonist | TRPML1 blocker | D2 potentiator | Six1-Eya2 blk | PINK1 expr mod | D2 ag
CCOc1ccccc1OCC(=O)NCc1ccco1 | -0.2 | -12 | -6 | -14 | x | -1.0
CCOc1ccc(NC(=O)CN(C)C(=O)CN2C(=O)NC3(CCCC3)C2=O)cc1OCC | 0.9 | 10 | -1 | 1 | 4.2% | -1.0
CCc1nn2c(=O)cc(COC(=O)c3ccccc3NC(=O)COc3ccc(F)cc3)nc2s1 | 1.3 | 1 | x | x | 1.7% | x
COc1ccc(C(=O)N2c3ccccc3C=CC2C#N)cc1 (configuration not stated) | 1.9 | 46 | -9 | 10 | 5.2% | -2.5
CCOc1ccc2nc(NC(=O)CN3CCN(c4ccccn4)CC3)sc2c1 | 0.0 | 0 | 5 | -5 | -0.1% | u
C/C(CC(=O)NCc1ccco1)=N\NC(=O)C(c1ccccc1)c1ccccc1 | -1.7 | 3 | -9 | 6 | -0.3% | -3.4
Cc1ccc(C(=O)N2CCCC(C(=O)c3cc(F)ccc3F)C2)s1 (configuration not stated) | 0.7 | 3 | -11 | 0 | 2.3% | -2.7
CCOc1cc(Br)c(C2C(C(=O)OC)=C(C)NC3=C2C(=O)c2ccccc23)cc1OCC (configuration not stated) | 1.2 | -14 | x | x | -2.1% | x
O=C(Nc1cccc(-c2nc3ccccc3o2)c1)c1cccnc1 | 0.1 | -5 | 9 | -3 | 5.8% | 4.0
COc1ccc(NC(=O)NC2(C(=O)N3CCCC3)CCCCC2)cc1 | 0.5 | -12 | 0 | 17 | -0.5% | 1.5

An excerpt of these results, in CSV form.
molecule,TRPML1 agonist,TRPML1 blocker,D2 potentiator,Six1-Eya2 blk,PINK1 expr mod,D2 ag
CCOc1cc(Br)c(C2C(C(=O)OC)=C(C)NC3=C2C(=O)c2ccccc23)cc1OCC (configuration not stated),1.2,-14,x,x,-2.1%,x
CCc1nn2c(=O)cc(COC(=O)c3ccccc3NC(=O)COc3ccc(F)cc3)nc2s1,1.3,1,x,x,1.7%,x
O=C(Nc1cccc(-c2nc3ccccc3o2)c1)c1cccnc1,0.1,-5,9,-3,5.8%,4.0
Cc1ccc(C(=O)N2CCCC(C(=O)c3cc(F)ccc3F)C2)s1 (configuration not stated),0.7,3,-11,0,2.3%,-2.7
C/C(CC(=O)NCc1ccco1)=N\NC(=O)C(c1ccccc1)c1ccccc1,-1.7,3,-9,6,-0.3%,-3.4

Reformatted: results already given
Molecule: CCOc1ccc(NC(=O)CN(C)C(=O)CN2C(=O)NC3(CCCC3)C2=O)cc1OCC
  TRPML1 agonist: 0.9
  TRPML1 blocker: 10
  D2 potentiator: -1
  Six1-Eya2 blk: 1
  PINK1 expr mod: 4.2%
  D2 ag: -1.0

Molecule: COc1ccc(NC(=O)NC2(C(=O)N3CCCC3)CCCCC2)cc1
  TRPML1 agonist: 0.5
  TRPML1 blocker: -12
  D2 potentiator: 0
  Six1-Eya2 blk: 17
  PINK1 expr mod: -0.5%
  D2 ag: 1.5
